# Bioassay records deposited in PubChem by ICCB-Longwood Screening Facility, Harvard Medical School.
# HCMV UL50-53 inh: inhibitors of HCMV UL50-UL53 interaction, biochemical, HTRF; HCMV UL50-UL53 nuclear egress complex (human cytomegalovirus); normalized percent inhibition; inhibition, % (concentration not given with the values); actives 0.15% (n = 190,000);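 active = both replicates at 50% or more, plus weaker picks with an unusually low signal ratio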;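 note: stock transfer was 100 nL into about 20 µL; 0% = negative control wells and 100% = wells with untagged competitor protein; inactives centre near -12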
# GIV Gai3 FP: inhibitors of GIV peptide binding to Galpha-i3, primary screen, biochemical, fluorescence polarization, FITC-GIV GBA peptide, rat Galphai3. actives 0.42% (n = 210,000). Guanine nucleotide-binding protein G(i) subunit alpha-3 (Rattus norvegicus), P08753. AID 1224905, 2016. 90 min; stronger effect = lower value; scaled: aluminum fluoride 0%, vehicle 100%. percent of control (FP), % (concentration not given with the values);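 active = replicate mean at 85% of control or lower, very high polarization wells dropped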;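 note: wells of about 15 µL received 100 nL stock; the first replicate is given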
# Target sequence (P08753 whole entry, looked up): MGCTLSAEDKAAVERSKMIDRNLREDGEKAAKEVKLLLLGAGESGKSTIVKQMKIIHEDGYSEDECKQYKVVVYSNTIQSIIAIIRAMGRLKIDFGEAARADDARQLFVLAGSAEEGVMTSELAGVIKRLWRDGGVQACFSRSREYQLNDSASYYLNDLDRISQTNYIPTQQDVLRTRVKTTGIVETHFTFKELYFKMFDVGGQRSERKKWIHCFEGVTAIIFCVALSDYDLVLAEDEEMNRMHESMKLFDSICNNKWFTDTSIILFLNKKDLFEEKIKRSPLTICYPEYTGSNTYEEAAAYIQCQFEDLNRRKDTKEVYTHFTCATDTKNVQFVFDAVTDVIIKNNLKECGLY
# Sa growth inh: S. aureus growth inhibition at 42 and 30 °C, primary screen, LtaS inhibitor project, RN4220, two temperatures; OD600, 20 h, 42 °C; stronger effect = lower value; actives 0.53% (n = 170,000); relative growth, % (concentration not given with the values);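 active = growth at 42 °C up to 50% and 20 or more points under that at 30 °C, or under 10% at both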;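 note: 300 nL library stock went into each well; scaled to the means of positive and negative controls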
# Sa growth inh second temp: also measured in Sa growth inh; calls as there; relative growth, %; measured here: growth at 30 °C;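 optical density after 20 h as mean of two plates; 100% = untreated growth and lower means inhibition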
# An asterisk follows results filed as active; / = no result given; & = joins results of further samples.
SMILES,HCMV UL50-53 inh,GIV Gai3 FP,Sa growth inh,Sa growth inh second temp
Cc1ccc(-c2nn(-c3ccccc3)cc2/C=C/C(=O)O)o1,-73,/,113,66
Cc1cc(C)c(/C=C/c2onc(C)c2S(=O)(=O)N2CCC(C(=O)N3CC=C(c4ccccc4)CC3)CC2)c(C)c1,-1,110,/,/
COc1ccc(CCN2CC(=O)N(c3ccc(C)cc3)[C@@H]3CS(=O)(=O)C[C@@H]32)cc1OC,4,107,/,/
CCOC(=O)c1c(C)oc2ccc(N(C(=O)c3ccncc3)S(=O)(=O)c3ccc(C)cc3)cc12,-12,110&102,/,/
Cc1ccccc1CNC(=O)C(=O)NCC(c1cccs1)S(=O)(=O)c1cccs1 (stereo not given),/,103,97,101
CCOc1ccc(C(=O)Nc2ccc3oc(-c4cccc(C)c4)nc3c2)cc1[N+](=O)[O-],-16,103,/,/
CC(C)Cc1cc(-c2nn3c(COc4ccc(F)cc4)nnc3s2)n[nH]1,-5,104,/,/
O=C(CCC(=O)N1CCN(c2ccc(F)cc2)CC1)c1ccccc1,/,104,95,95
COCC(C)n1c(SCC(=O)c2ccc[nH]2)nc2ccccc2c1=O (stereo not given),-6,/,98,100
O=C(NCc1nnc(SCC(=O)N2CCCC2)o1)c1c(F)cccc1Cl,/,98,94,78
N#Cc1nc2c(C#N)c(N)n(Cc3ccco3)c2nc1C#N,-76,/,96,76
COC(=O)c1ccc(COC(=O)c2cccc(C(F)(F)F)c2)cc1,-31,/,93,90
CC(C)N(C(=O)CSc1ccc(Cl)c(Cl)c1)C(C)C,5,109,/,/
COc1ccc(NC(=O)CSc2cn(CCNC(=O)c3ccc(OC)cc3)c3ccccc23)cc1,-12,100,109,90
Cc1cccc(NC(=O)CCNS(=O)(=O)c2ccc3c(c2)CCCC(=O)N3)c1C,/,102,99,85
CC(=O)OC1COC(NC(=S)Oc2ccccc2)C(OC(C)=O)C1OC(C)=O (stereo not given),-6,/,68,96
CCN(CC)C(=O)C1(S(=O)(=O)c2ccc(Cl)cc2)CC1,-5,101,90,91
C=CCNC(=S)NNc1ccccc1Cl,-24,/,96,87
O=C(CN1C(=O)c2ccccc2C1=O)OC1CCOC1=O (stereo not given),-34,/,103,94
CCNC(=S)NCc1ccc2[nH]c(C)cc2c1,-3,101,102,91
O=C(Cn1c(=O)n(Cc2ccccc2)c(=O)c2ncccc21)N1CCN(c2ccccc2)CC1,-33,103,/,/
CC(=O)Nc1nc(C(C)(C)C)cs1,-12,/,103,89
COc1ccccc1CNC(=O)c1ccc(N2CCCC2)c(NC(=O)Nc2ccc(Cl)cc2)c1,-13,106,/,/
COc1ccc(NC(=O)COC(=O)C2CCCCC2)cc1,-25,/,79,92
O=C1CN=C(Nc2cccc(C(F)(F)F)c2)N1C1CCCC1,6,106,94,78
# Additional compounds follow.
SMILES,HCMV UL50-53 inh,GIV Gai3 FP,Sa growth inh,Sa growth inh second temp
COc1cc(-c2nc3ccccc3c(=O)n2NCc2ccc(Br)cc2)cc(OC)c1OC,-29,103,/,/
O=C(CSc1nc2ccccc2c(=O)n1CCCN1CCOCC1)c1ccccc1,0,/,81,96
CCOc1ccccc1N1C(=O)C2C3C=CC(CC3)C2C1=O (stereo not given),-18,105,/,/
COc1ccc(C(=O)NCc2ccc3c(c2)CCN3C(C)=O)c(OC)c1,/,103,106,98
O=C(O)c1ccc2[nH]c3c(c2c1)CSCC3,-12,/,77,82
O=C(NC1CCCC1)c1cnn2c(C(F)F)cc(-c3ccccc3)nc12,-14,109,101,64
CCn1cc2nc(SCC(=O)Nc3ccc(C)cc3C)n(Cc3ccc(C)cc3)c(=O)c2n1,/,103,96,71
COc1ccccc1CN1CCN(C(CC(C)C)c2nnnn2Cc2ccc(F)cc2)CC1 (stereo not given),-8,98,128,85
CC1=Nc2ccccc2N=C(NC(=O)/C=C/C(=O)O)C1c1ccccc1 (stereo not given),/,106,99,74
Cc1cc(C)cc(NC(=O)NCCCn2c(-c3ccc(F)cc3)nc3cccnc32)c1,-18,118,/,/
CCc1ccc(NC(=O)CC(=O)Nc2ccc3nc4n(c(=O)c3c2)CCCCC4)cc1,6,107,97,80
c1ccc(SCc2nnc3sc(-c4ccncc4)nn23)cc1,-10,104,/,/
CCc1ccc2c(c1)-c1ccccc1S(=O)(=O)N2CC(=O)N1CCOCC1,-12,97,/,/
O=C(NCCC1=CCCCC1)c1nnc(Cc2ccc(Cl)cc2)o1,-12,96,/,/
CCCc1cnc2c(c1SCC(=O)Nc1c(C)cc(C)cc1C)c(=O)n(C)c(=O)n2C,/,102,118,95
CCN(CC(=O)Nc1cc(Cl)ccc1C)C(=O)C1CCCCC1,8,/,85,96
CCCOc1cc(O)c2c(=O)cc(-c3ccccc3)oc2c1,-5,97,/,/
Cc1cccc(C)c1N(C)C(=O)c1cnccc1C(F)(F)F,3,110,105,102
CCCNC(=O)Cn1nc(-c2ccc(Cl)cc2)c2c(C)onc2c1=O,-20,101,/,/
Cc1csc2c(N3CCSCC3)ncnc12,-8,100,79,85
N#C/C(=C\c1ccc(-c2ccc(S(=O)(=O)N3CCOCC3)cc2)o1)S(=O)(=O)c1ccc(Br)cc1,-17,/,87,91
CCOC(=O)c1c(C)[nH]c(C)c1S(=O)(=O)N1CCC(C(=O)NCc2ccc(OC)cc2)CC1,/,99,118,86
CCOC(=O)c1ccccc1NC(=O)N(Cc1ccco1)C1CCN(C(C)=O)CC1,/,108,108,103
COc1ccc(CNc2ccc(F)cc2C)c2ccccc12,/,101,71,74
Cc1c(C(=O)N2CCC(N(C)C(C)C)CC2)sc2ncnc(N3CCN(C)CC3)c12,-31,102,/,/

# Ordered by number of heavy atoms (lowest first): 6 of the compounds above.
SMILES,HCMV UL50-53 inh,GIV Gai3 FP,Sa growth inh,Sa growth inh second temp
Cc1csc2c(N3CCSCC3)ncnc12,-8,100,79,85
CCCOc1cc(O)c2c(=O)cc(-c3ccccc3)oc2c1,-5,97,/,/
CCN(CC(=O)Nc1cc(Cl)ccc1C)C(=O)C1CCCCC1,8,/,85,96
CC1=Nc2ccccc2N=C(NC(=O)/C=C/C(=O)O)C1c1ccccc1 (stereo not given),/,106,99,74
CCOC(=O)c1c(C)[nH]c(C)c1S(=O)(=O)N1CCC(C(=O)NCc2ccc(OC)cc2)CC1,/,99,118,86
N#C/C(=C\c1ccc(-c2ccc(S(=O)(=O)N3CCOCC3)cc2)o1)S(=O)(=O)c1ccc(Br)cc1,-17,/,87,91

# Remaining list, next part:
SMILES,HCMV UL50-53 inh,GIV Gai3 FP,Sa growth inh,Sa growth inh second temp
Cn1c(=O)cc(OCC(=O)NC2CCN(Cc3ccccc3)CC2)c2ccccc21,/,105,101,93
O=C(CSc1cn[nH]n1)N1CCN(S(=O)(=O)c2ccccc2)C1,/,100,100,84
O=C(O)CN1C(=O)c2ccc(Oc3ccc4c(c3)C(=O)N(CC(=O)O)C4=O)cc2C1=O,-90,99,84,89
O=C(Cn1nc(Cc2cccnc2)c2ccccc2c1=O)N1CC=C(c2ccccc2)CC1,-10,98,/,/
CSc1ccccc1S(=O)(=O)C(C)(C)C,-24,106,110,97
Cc1ccc(CN2C(=O)C(=O)c3cc(Br)cc(C)c32)cc1,-10,107,67,18
CCc1nc2ccccc2c(C(=O)OCC#N)c1C,-29,/,90,98
COc1ccc2[nH]c(C(=O)NCc3cccc(F)c3)c(N3CCCC3=O)c2c1,-24,104,/,/
CC1CC1c1ccc(/C=C/C(=O)O)o1 (stereo not given),-22,/,79,94
CN(CC(=O)NC1=NCCS1)S(=O)(=O)c1ccc(Cl)cc1,4,/,85,94
CCc1cc2c(cc3c(=O)n(CC(=O)NCc4cccc(Cl)c4)nc(CC)n32)s1,-27,100,107,86
Cc1onc(-c2c(Cl)cccc2Cl)c1NC(=O)NC1CCSC1 (stereo not given),-26,103,92,86
CCC1C(=O)N=C(SCC(=O)Nc2ccc(S(N)(=O)=O)cc2)N(c2ccccc2)C1=O (stereo not given),-9,115,/,/
COc1ccccc1C(C)NCC(=O)Nc1cc(C)on1 (stereo not given),-21,/,72,91
COC(=O)c1cc2oc(C)cc2n1Cc1c(C)cc(C)cc1C,-7,104,108,77
O=C(c1cccs1)n1ccc(C(F)(F)F)n1,-5,103,88,87
NC(=O)C1CCCCC1C(=O)O (stereo not given),-12,100,88,104
Cc1cc(=S)cc(-c2ccccc2)n1CCN1CCOCC1,-23,100,93,85
CCc1ccc(N2C(=O)CSC23C(=O)N(Cc2ccc(C)cc2)c2ccccc23)cc1 (stereo not given),/,101,95,88
COc1cccc(CNC(=O)C2CCCN(S(=O)(=O)c3ccc4c(ccn4C)c3)C2)c1OC (stereo not given),/,98,73,83
NNC(=O)c1c(-c2ccccc2)c(-c2ccccc2)nn2nnnc12,-82,104,70,57
O=C(c1cnc2ccccc2c1S(=O)(=O)c1ccccc1)N1CCSCC1,-31,101,/,/
O=C(CN1C(=O)/C(=C/c2ccccc2F)Sc2ccccc21)N1CCN(c2ccc(F)cc2)CC1,/,99,92,68
COc1ccc(C2=NN(C(C)=O)C(c3cccc(OC)c3OC)C2)cc1OC (stereo not given),-28,107,/,/
FC(F)(F)c1cc(C(F)(F)F)c2c(n1)[nH]c1ccccc12,-16,/,72,82

# The last 2 records of the section above are carried over, then new ones follow:
SMILES,HCMV UL50-53 inh,GIV Gai3 FP,Sa growth inh,Sa growth inh second temp
COc1ccc(C2=NN(C(C)=O)C(c3cccc(OC)c3OC)C2)cc1OC (stereo not given),-28,107,/,/
FC(F)(F)c1cc(C(F)(F)F)c2c(n1)[nH]c1ccccc12,-16,/,72,82
O=C(CSc1nnc(-c2ccco2)o1)NCCCN1CCCC1=O,4,/,91,93
Cn1c(=O)n(-c2cccc(Cl)c2)c(=O)n1C,-1,104,116,98
COc1ccc(-c2cc3c(=O)n(CC(=O)Nc4cc(C)ccc4C)ccn3n2)cc1,/,101,82,89
CCCCOc1c(OC)cccc1C1CC(=O)Nc2c1c(C)nn2-c1ccc2nncn2n1 (stereo not given),-25,98,/,/
CC(=O)c1c(C)oc2ccc(N(C(=O)Oc3ccccc3)S(=O)(=O)c3ccc(Cl)cc3)cc12,-14,103,106,89
COC(=O)c1cc2ccsc2n1CC(=O)NCCC(C)C,0,102,/,/
COc1cc(OC)cc(-c2nc3ccccc3c(=O)n2OC(=O)c2ccccc2Cl)c1,/,102,112,89
CCCn1c(SCc2nc(N)nc(Nc3ccccc3C)n2)nnc1-c1ccncc1,-35,/,73,99
CC(C)c1ccc(Nc2c(-c3ccc(N(C)C)cc3)nc3cnccn23)cc1,3,107,95,91
CN(C)c1ccc(/C=N/NC(=O)Cc2ccccc2)cc1,-59,108,83,79
O=C(CSc1nc2c([nH]c3ccccc32)c(=O)n1-c1cccc(Cl)c1)N1CCOCC1,/,96,101,63
CN(/N=C/c1cc(Cl)cc(Cl)c1O)C(=S)NC(C)(C)C,19,137,75,70
CSC(N)=Nc1c(Cl)cccc1Cl,-28,98,92,88
COc1ccccc1C1CC(c2c(-c3ccccc3)c3cc(Br)ccc3[nH]c2=O)=NN1C(=O)CCC(=O)O (stereo not given),0,103,/,/
CN(C)S(=O)(=O)c1ccc(C(=O)N2CCCC2c2nc3ccccc3s2)cc1 (stereo not given),11,/,100,110
CCOc1ccc(CNC(=O)c2cc3oc4ccccc4c3n2CC)cc1,3,100,93,81
CC(C)(C)C(=O)COC(=O)c1ccc(Cl)cc1N,-20,/,110,84
CCOc1ccc(NC(=O)c2c(NC(=O)c3ccccc3F)sc3c2CCC3)cc1,24,95,91,103
CCOC(=O)c1ccc(CNC(=O)C(Cc2ccccc2)N2Cc3ccccc3C2=O)cc1 (stereo not given),-4,107,104,89
O=C(OC(C(=O)NCc1cccs1)c1ccccn1)c1cccs1 (stereo not given),14,104,104,108
CCCN1CCc2nc(N3CCN(C)CC3)ncc2C1,/,108,97,97
COc1cccc(CSc2nc3ccncc3n2Cc2ccc(C(=O)NC3CCCC3)cc2)c1,-27,106,/,/
Cc1sc(-c2noc(C3CCC3)n2)cc1S(=O)(=O)N1CCCC(C(=O)N2CCOCC2)C1 (stereo not given),-11,105,/,/
COc1ccc(/C=C/C(=O)NC(=O)c2ccccc2OCC(=O)c2ccc(Br)cc2)cc1,/,102,80,59
COc1ccc(NC(=O)c2cc3cc(C)ccc3[nH]2)cc1,7,104,91,91
CCc1noc2nc(C)n(CC(=O)NCCC3=CCCCC3)c(=O)c12,-6,110,/,/
COc1cc(C2C(C(=O)Nc3ccc(C)cn3)=C(C)NC3=C2C(=O)CCC3)cc(OC)c1OC (stereo not given),-13,105,/,/
Clc1cc(Br)ccc1N=Cc1ccc2c(c1)OCO2,-7,105,94,89
COc1ccc(OC)c(CCNC(=O)CCn2c(=O)c3cccn3c3ccc(F)cc32)c1,-13,98,114,85
Cc1ccc(C(=O)CCN2CCOCC2)cc1,/,100,43,57

# Molecules above with a tert-butyl group:
SMILES,HCMV UL50-53 inh,GIV Gai3 FP,Sa growth inh,Sa growth inh second temp
CC(=O)Nc1nc(C(C)(C)C)cs1,-12,/,103,89
CSc1ccccc1S(=O)(=O)C(C)(C)C,-24,106,110,97
CN(/N=C/c1cc(Cl)cc(Cl)c1O)C(=S)NC(C)(C)C,19,137,75,70
CC(C)(C)C(=O)COC(=O)c1ccc(Cl)cc1N,-20,/,110,84
